KCNQ2 pot: potentiators of rat KCNQ2 potassium channel. Potassium voltage-gated channel subfamily KQT member 2 (Rattus norvegicus), O88943. CHO-K1 KCNQ2, FluxOR thallium flux fluorescence; stronger effect = higher value. B-score at 10 µM. 310,000 tested, 0.54% active;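 active = fluorescence ratio B-score at least 3 SD of library B-scores, with initial fluorescence B-score within 3 SD, cut at about 5.3 in these data; same plate scores as AID 2156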;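 also: B-score of peak minus minimum over baseline fluorescence ratio after K+ and Tl+ stimulus; positive B-score means potentiation of KCNQ2 with more thallium influx and brighter signal; only the inactives scoring about 0 or higher are listed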
Target sequence (O88943 whole entry, looked up): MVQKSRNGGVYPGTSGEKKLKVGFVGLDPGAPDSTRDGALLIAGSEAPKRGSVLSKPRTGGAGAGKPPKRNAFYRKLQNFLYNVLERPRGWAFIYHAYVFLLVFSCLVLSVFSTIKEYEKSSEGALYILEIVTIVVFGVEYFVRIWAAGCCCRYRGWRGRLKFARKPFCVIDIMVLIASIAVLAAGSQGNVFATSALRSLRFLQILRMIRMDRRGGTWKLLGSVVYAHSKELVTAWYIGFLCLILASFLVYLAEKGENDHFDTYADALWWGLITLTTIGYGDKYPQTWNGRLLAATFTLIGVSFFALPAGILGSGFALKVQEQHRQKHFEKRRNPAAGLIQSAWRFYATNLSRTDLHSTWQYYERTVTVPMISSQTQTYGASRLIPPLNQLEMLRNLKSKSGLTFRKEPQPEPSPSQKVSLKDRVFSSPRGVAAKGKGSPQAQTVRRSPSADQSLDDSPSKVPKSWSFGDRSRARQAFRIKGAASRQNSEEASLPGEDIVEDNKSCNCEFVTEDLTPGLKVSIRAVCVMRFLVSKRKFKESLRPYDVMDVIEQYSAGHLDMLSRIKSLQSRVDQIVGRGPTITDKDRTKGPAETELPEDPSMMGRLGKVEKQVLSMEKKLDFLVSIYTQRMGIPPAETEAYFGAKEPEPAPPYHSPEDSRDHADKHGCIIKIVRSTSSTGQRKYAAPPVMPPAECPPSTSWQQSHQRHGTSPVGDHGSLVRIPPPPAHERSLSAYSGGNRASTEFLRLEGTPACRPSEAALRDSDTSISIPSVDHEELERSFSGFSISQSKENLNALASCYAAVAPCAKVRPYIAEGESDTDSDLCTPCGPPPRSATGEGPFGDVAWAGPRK
KCNQ2 pot baseline: also measured in KCNQ2 pot; calls as there; B-score; compound at 10 µM; measured here: initial fluorescence intensity artifact check;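 brightness before thallium and not channel activity; 0 = typical well and far values either way flag optical interference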
The depositor's hits bear a star; & = joins results of further samples. This is a subset, so the mix of outcomes need not match the whole.

KCNQ2 pot | KCNQ2 pot baseline | Structure
0.29 | -0.73 | C=CC[n+]1c(/C=C/c2ccc(OC(C)=O)c(OC)c2)ccc2ccccc21
1.2 | 0.01 | COc1ccccc1Nc1nc(=O)[nH]nc1C
2.7 | 0.15 | COc1ccc(NC(=O)C2CCCN(C)C2)cc1OCC(C)C (stereo not given)
0.19 | -1.8 | CS(=O)(=O)N1CCN(c2ccccc2NC(=O)c2ccc([N+](=O)[O-])o2)CC1
0.01 | 0.03 | COc1ccc(CCNS(=O)(=O)c2cccc(C(=O)O)c2)cc1OC
0.18 | 3 | O=C(CN1C(=O)c2ccc([N+](=O)[O-])cc2C1=O)NCC1CCCO1 (stereo not given)
1.3 | 1.1 | COc1ccc(CN2CC(C(=O)NCc3cccc(OC)c3)CC2=O)cc1 (stereo not given)
0.2 | 0.39 | COc1cc(OC)cc(C(=O)NCCN2C(=O)S/C(=C\c3cccs3)C2=O)c1

KCNQ2 pot | KCNQ2 pot baseline | Structure
0.16 | -0.04 | CC(C(=O)N1CCc2ccccc2C1)N1C(=O)c2ccccc2C1=O (stereo not given)
0.83 | -1.7 | COc1ccc(CCn2c(-c3ccc(C(C)(C)C)cc3)n[nH]c2=S)cc1OC
0.11 | 0.94 | CCC(=O)Nc1cc2nn(-c3ccc(OC)cc3)nc2cc1C
1.4 | 0.15 | Cc1cccc(N2CCC(N=CN(C)C)=N2)c1
0.68 | -1.6 | CCCn1nnc(NC(=O)c2cc(Br)cc(Br)c2OC)n1
0.98 | 0.21 | COc1ccc(/C=C(/NC(=O)c2cccc([N+](=O)[O-])c2)C(=O)O)cc1
1.8 | -1.6 | O=C(Nc1ccc(OC(F)(F)F)cc1)c1ccc2c(c1)no[n+]2[O-]
0.56 | -0.61 | Cc1cc(Cl)c(OCCCN2CCCCC2)c(Br)c1

KCNQ2 pot | KCNQ2 pot baseline | Structure
1.3 | -0.06 | CC(C)NC(=O)c1cccc(Cn2cc(Cl)cn2)c1
0.64 | -0.94 | O=C(c1cccc(Br)c1)N1CCN(C2=NS(=O)(=O)c3ccccc32)CC1
0.78 | -1.5 | CC(=O)Nc1c(C(N)=O)oc2ccc(Cl)cc12
2.8 | -1.2 | CC(CCc1ccccc1)NC(=O)CN1CCN(Cc2ccccc2)C1=O (stereo not given)
0.09 | 3.1 | CCN(CC)S(=O)(=O)c1cccc(-c2nnc(SCc3nnc(-c4ccccc4)o3)n2C)c1
0.7 | 0.01 | CCOC(=O)c1sc2nc(N3CCOCC3)c3c(c2c1N)CCN(Cc1ccccc1)C3
0.12 | 0.02 | COc1ccc(C(=O)NNC(=O)CSc2nnc(-c3cccnc3)o2)cc1
4.5 | 0.66 | Cc1ccc(NC(=O)OCc2cccs2)cc1

KCNQ2 pot | KCNQ2 pot baseline | Structure
0.04 | 1.4 | CCOc1ccc(N/C=C/C(=O)c2ccc(C)cc2)c([N+](=O)[O-])c1
0.01 | -2.2 | Cc1ccc(S(=O)(=O)NC(=O)COc2ccccc2C)c(C)c1
0.96 | -0.06 | O=C(Nc1ccccc1)C1CCCCN1S(=O)(=O)c1ccccc1 (stereo not given)
1.1 | -1.4 | CCCOC1CCCN(C(=O)c2cc(COc3ccc(F)c(F)c3)on2)C1 (stereo not given)
1.1 | 1.6 | CCN1CNC(=S)N(c2cccc(C)c2C)C1
0.48 | -0.28 | CCNS(=O)(=O)c1ccc(CCC(=O)NCc2ccc3c(c2)OCO3)cc1
0.11&0.88 | 2&-0.41 | CC(C)CCC(C(=O)O)C(C)CC(=O)NNC(=O)c1ccco1 (stereo not given)
1.1 | 0.06 | O=C(Nc1ccc(F)cc1)c1nc[nH]c1C(=O)O

KCNQ2 pot | KCNQ2 pot baseline | Structure
0.12 | 0.06 | CC(C)CNC(=S)NNC(=O)c1csc2c1CCCC2
1.8 | -0.73 | CC(=O)Nc1ccc2c(CSc3nnc(N)s3)cc(=O)oc2c1
2.6 | -0.13 | O=C(NCc1cccnc1)NC1(C(F)(F)F)Oc2ccc(Cl)cc2O1 (stereo not given)
12* | 1.2* | O=C(NNc1ncc(C(F)(F)F)cc1Cl)c1ccc(Cl)c(Cl)c1
0.5 | 1.3 | CCCCCCc1c(O)c2ccccc2[nH]c1=O
0.08 | 1.3 | CCOC(=O)c1ccc(OCC2NCCc3cc(OC)c(OC)cc32)cc1 (stereo not given)
0.73 | -1.1 | O=S(=O)(Cc1cc(NCc2ccccc2)nc(-c2ccccn2)n1)c1ccccc1
0.91 | 0.4 | Cc1oc2nc(SCC(=O)NCCCO)nc(N)c2c1C

KCNQ2 pot | KCNQ2 pot baseline | Structure
1.1 | 0.85 | CCCOc1ccc(C2=CSC3=NCCN23)cc1Cl
0.01 | -0.03 | CC(C)(C)NC(=O)NC(=O)COC(=O)CCC1CCCC1
0.29 | 1.6 | O=C1CC2CS(=O)(=O)CC2N1C1CCCCC1 (stereo not given)
1.1 | 0.47 | CCOC(=O)c1ccc(NC(=O)C2CCN(S(=O)(=O)c3ccccc3)CC2)cc1
0.39 | 0.01 | CNC(=O)/C(C#N)=C/c1ccc(-c2ccc(OC)cc2[N+](=O)[O-])o1
0.45 | -0.39 | CCOc1ccc2nc(NC(=O)CN3CCN(c4ccccn4)CC3)sc2c1
1.5 | -0.55 | Cc1cccc(C(=O)NCC(=O)OCC(=O)NCCNC(=O)COC(=O)CNC(=O)c2cccc(C)c2)c1
0.21 | 0.26 | CC1CCCCN1C(=O)c1cc2ccccc2cc1O (stereo not given)

Reprinted from the part before: five entries, then new ones.
KCNQ2 pot | KCNQ2 pot baseline | Structure
1.1 | 0.47 | CCOC(=O)c1ccc(NC(=O)C2CCN(S(=O)(=O)c3ccccc3)CC2)cc1
0.39 | 0.01 | CNC(=O)/C(C#N)=C/c1ccc(-c2ccc(OC)cc2[N+](=O)[O-])o1
0.45 | -0.39 | CCOc1ccc2nc(NC(=O)CN3CCN(c4ccccn4)CC3)sc2c1
1.5 | -0.55 | Cc1cccc(C(=O)NCC(=O)OCC(=O)NCCNC(=O)COC(=O)CNC(=O)c2cccc(C)c2)c1
0.21 | 0.26 | CC1CCCCN1C(=O)c1cc2ccccc2cc1O (stereo not given)
3.2 | -1.9 | CC1CCCN(c2ccc(C(=O)NCc3ccco3)cc2[N+](=O)[O-])C1 (stereo not given)
0.83 | 0.28 | O=C(NCCc1ccccc1)C(=O)NCC1OCCN1S(=O)(=O)c1ccc(Cl)cc1 (stereo not given)
0.26 | -1.5 | O=C(NCC1CCCO1)C(=O)NCC(c1ccco1)N1CCN(c2ccccc2F)CC1 (stereo not given)
0.31 | 0.13 | COc1ccc(CCN=C(N)NS(=O)(=O)c2ccc(OC)cc2)cc1
0.61 | -1.6 | CCC(=O)NC1(C(F)(F)F)C(=O)Nc2c1c(=O)[nH]c(=O)n2CC(C)C (stereo not given)
0.39 | -0.19 | CCCCn1c(N)c(N(CC(C)C)C(=O)c2ccc(Br)o2)c(=O)[nH]c1=O
1.6 | 1 | O=C(NC(=S)Nc1cccc2c(O)cccc12)c1ccccc1[N+](=O)[O-]
0.27 | -0.25 | O=C(O)CSc1nnnn1C1CCCCC1

KCNQ2 pot | KCNQ2 pot baseline | Structure
1.1 | 2.1 | COc1cc(NC(=O)c2[nH]c(C)c(C(C)=O)c2C)cc(OC)c1OC
1.8 | -0.45 | COc1ccc(-c2csc3nc(C(C)C)oc(=O)c23)cc1OC
0.21 | 0 | c1ccc(COC2CCCN(Cc3nc(-c4cnccn4)no3)C2)cc1 (stereo not given)
0.47 | -0.01 | CC(=O)NC1=NN(C(C)=O)C(C)(c2ccc3ccccc3c2)S1 (stereo not given)
0.01 | -0.06 | Cc1cc(=O)n2[nH]c(SCc3ccccc3Cl)nc2n1
2.9 | -0.61 | Cn1cccc1C(=O)N/N=C/c1c(Cl)cccc1Cl
0.89 | -2 | Cn1c(=O)oc2cc(S(=O)(=O)Nc3ccc4c(c3)OCO4)ccc21
1.4 | -0.14 | Cc1nn(-c2ccccc2)c2nc(N)c(C(N)=O)cc12

KCNQ2 pot | KCNQ2 pot baseline | Structure
5 | -0.56 | CC(C)C(=O)Nc1ccc2c3c(cccc13)CC2
0.45 | -0.15 | COc1ccccc1OCc1nnc(SCC(=O)Nc2ccc(C)cc2)n1C
1.9 | 0.67 | CCNS(=O)(=O)c1ccc(NC(=O)c2ccccc2)cc1
0.93 | 0.42 | CCOC(=O)c1nnn(-c2nonc2N)c1-c1ccc(F)cc1
1.5 | 0.26 | Cc1ccc2oc(-c3cccc(N)c3)nc2c1
0.06 | 0 | CCC(=O)NCCc1nc2cc(NC(=O)c3ccc(Cl)cc3)ccc2n1C
0.16 | 0.69 | Cc1cc2c(nn1)CCc1c-2no[n+]1[O-]
0.34 | 0.45 | O=C(NCCc1c[nH]c2ccccc12)C(=O)NCC(c1ccco1)N1CCN(c2ccccc2)CC1 (stereo not given)

KCNQ2 pot | KCNQ2 pot baseline | Structure
0.72 | -0.67 | O=C(Nc1ccc(OC(F)F)c(Cl)c1)Nc1ccc2c(c1)OCO2
1.6 | 0.97 | CC(C)c1ccc(C2CC(=O)N3CN(C)CSC3=C2C#N)cc1 (stereo not given)
0.27 | 0.08 | Cc1cc(NS(=O)(=O)c2ccc(NC(=S)NC(=O)c3ccccc3)cc2)no1
1.1 | 0.34 | CC(=O)c1sc(NC(=O)c2ccccc2F)nc1-c1ccccc1
1.2 | -0.15 | Cc1nn(CC(=O)NCCN2CCOCC2)c(C)c1[N+](=O)[O-]
1.4 | -1.4 | CCOc1ccccc1NC(=O)c1ccc2c(c1)C(=O)N(CC)C2=O
0.04 | -1 | CCc1sc(N(C(=O)Cc2ccccc2)c2ccc(F)cc2)nc1-c1ccccc1
1.8 | -1.6 | COc1cc([N+](=O)[O-])cc(/C=N/NC(=O)Cn2nccc2C)c1O

KCNQ2 pot | KCNQ2 pot baseline | Structure
0.61 | -0.74 | CC(C)CC(=O)Nc1nc2c(c(=O)[nH]1)CCCC2
0.34 | 0.67 | CC1CCN(CCCNC(=O)C2CCC(=O)N2C2CCCC2)CC1 (stereo not given)
1.7 | 1.8 | C=CCOc1ccc(Cl)cc1CNC1CCCC1
0.3 | -0.04 | O=C(O)c1[nH]c2ccc(Cl)cc2c1CC(=O)N1CCN(C(=O)c2ccco2)CC1
0.19 | 2.6 | CC(=O)N1CCN(C(=O)C2(NC(=O)Nc3ccc(C)cc3)CCCCC2)CC1
2.1 | -0.66 | CCOC(=O)N1CCN(C(=O)C2CCN(S(=O)(=O)N(CC)CC)CC2)CC1
0.2 | -1.8 | O=C(CSc1nnc(-c2ccc(O)cc2)o1)N1CCOCC1
0.48 | 1.1 | CNC(=O)c1cc(C(=O)c2ccccc2Br)c[nH]1

KCNQ2 pot | KCNQ2 pot baseline | Structure
0.2 | 0.53 | c1ccc(Cc2nn3c(Cn4nnc5ccccc54)nnc3s2)cc1
0.7 | -0.44 | COc1ccc(NC(=S)Nc2ccccc2)cn1
1.5 | -3.2 | CCc1cccc(NC(=O)C2CCCN(S(=O)(=O)c3cccs3)C2)c1 (stereo not given)
0.28 | 0.86 | COc1cc(CN2CCN(CCCc3ccccc3)C(CCO)C2)cc(OC)c1O (stereo not given)
1 | 0.38 | CC/C(=N\NS(C)(=O)=O)c1ccccc1
0.73 | 0.68 | CCn1ncc(S(=O)(=O)Nc2cc(Cl)ccc2C)c1C
0.17 | -0.05 | COc1cccc(Cn2cccc(NC(=O)NCc3ccccc3)c2=O)c1
0.52 | 0.43 | Cc1ccc(NC(=O)c2cc(S(=O)(=O)NCCC3=CCCCC3)ccc2F)cc1

KCNQ2 pot | KCNQ2 pot baseline | Structure
0.94 | -1.3 | Cc1ccccc1-c1nc(CS(=O)CC(=O)NC(C)CCc2ccccc2)c(C)o1 (stereo not given)
1.6 | 0.02 | COCCN(C(=O)c1csnn1)C(C(=O)NC1CCCCC1)c1ccccc1 (stereo not given)
0.14 | -1.1 | COc1ccc(NC(=O)COc2ccc(C(=O)c3ccc(F)cc3)cc2)cc1S(N)(=O)=O
1.5 | 0.03 | Cc1cc(C)n(CCC(=O)Nc2ccc(-c3ccno3)cc2)n1
1.3 | 0.23 | CC(CN1CCCC1)C(=O)NN (stereo not given)
1.8 | -0.21 | Cc1ccc(NC(=O)NCCN2CCCCC2)cc1Cl
0.02 | 0.15 | CC(=O)c1ccc(NC(=O)CSc2nnc(NC(=O)c3ccco3)s2)cc1
0.47 | -0.7 | CCCCN(Cc1cc2cc(OC)ccc2[nH]c1=O)C(=O)COc1ccccc1

KCNQ2 pot | KCNQ2 pot baseline | Structure
0.12 | 0.18 | COc1ccc(CN2CCC(C(=O)Nc3ccc(Oc4ccccc4)nc3)CC2)cc1F
1.7 | -0.08 | COc1ccccc1NC(=O)CCN1CC(C)OC(C)C1 (stereo not given)
0.23 | -1.1 | COn1c(=O)c(-c2ccc(C)cc2)[n+]([O-])c2ccccc21
0.1 | -1.2 | CCCCC(=O)OCCNC(=O)c1cc2ccccc2oc1=O
0.91 | -1.7 | CC1CCC(NC(=O)CC(NC(N)=O)c2ccccc2Cl)CC1 (stereo not given)
0.47 | 0.06 | Cc1cc(NC(=O)CCC(=O)N(CC(=O)NC2CCCC2)c2ccc(Cl)c(Cl)c2)no1
1 | -0.12 | CCOc1cc(NC(=S)NCCCOC)c(OCC)cc1NC(=O)c1cccs1

Complete entries, quoted from the list.
`CCCOC1CCCN(C(=O)c2cc(COc3ccc(F)c(F)c3)on2)C1` (stereo not given) is entered as KCNQ2 pot = 1.1; KCNQ2 pot baseline = -1.4
`COc1cc(NC(=O)c2[nH]c(C)c(C(C)=O)c2C)cc(OC)c1OC` is entered as KCNQ2 pot = 1.1; KCNQ2 pot baseline = 2.1

Screening results from PubChem BioAssay.
